CtBP-E1A inh – CtBP/E1A binding inhibition | AlphaScreen GST-E1A/His-CtBP binding, 1536-well; stronger effect = lower value; control for the full effect not named in the record | activity change, % (no concentration beside the values) | 340,000 compounds, 0.49% hits | AID 651724; in the data active means activity change below about -65%; inconclusive means about -30% to -65%; inactive means above about -30%; also: % is scaled to controls: 0 for no effect and ±100 for the full control effect
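GST-E1A and His-tagged CtBP (125 nM each as 5X stock) were preincubated with pin-transferred compound for 2 h at 37 °C in the dark, then glutathione donor and nickel acceptor beads were added for 1 h before AlphaScreen reading.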
gsp antag – gsp mutant antagonism. 340,000 compounds, 0.4% hits. gsp-mutant cells, cAMP HTRF, 30 min; control for the full effect not named in the record. Potency, µM (doses to about 76.9 µM), inactives show at the top dose activity change, negative = inhibition, usual class: inhibitors; active = falling curve of any shape with a large fitted effect; inconclusive = falling curve, mostly with a smaller effect; inactive = flat or rising curve; cell line not stated here;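 also: intracellular cAMP measured with PDE inhibitor Ro 20-1724 present during compound exposure; potency is read from the fitted curve at half-maximal effect; % is scaled to controls: 0 for no effect and ±100 for the full control effect; nearly all actives have a fitted effect of over 65% in size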
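Cells in G418 medium, seeded 16-24 h, 37C; buffer exchange to DPBS + 1 mM CaCl2, 0.5 mM MgCl2, 0.05% BSA; cpds in DMSO + […] (300 uM stock), 30 min 37C; HTRF cAMP detection.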
Six1-Eya2 inh – blocks human Six1 binding to Eya2; 360,000 compounds, 0.56% hits; AlphaScreen GST-Six1/His-Eya2 binding, biochemical; stronger effect = lower value; control for the full effect not named in the record; activity change, % (concentration not given with the values); Q15475+O00167; in the data active = activity change below about -65%; inconclusive = about -30% to -65%; inactive = above about -30%; also: % is scaled to controls: 0 for no effect and ±100 for the full control effect
Target sequence (O00167 whole entry, looked up): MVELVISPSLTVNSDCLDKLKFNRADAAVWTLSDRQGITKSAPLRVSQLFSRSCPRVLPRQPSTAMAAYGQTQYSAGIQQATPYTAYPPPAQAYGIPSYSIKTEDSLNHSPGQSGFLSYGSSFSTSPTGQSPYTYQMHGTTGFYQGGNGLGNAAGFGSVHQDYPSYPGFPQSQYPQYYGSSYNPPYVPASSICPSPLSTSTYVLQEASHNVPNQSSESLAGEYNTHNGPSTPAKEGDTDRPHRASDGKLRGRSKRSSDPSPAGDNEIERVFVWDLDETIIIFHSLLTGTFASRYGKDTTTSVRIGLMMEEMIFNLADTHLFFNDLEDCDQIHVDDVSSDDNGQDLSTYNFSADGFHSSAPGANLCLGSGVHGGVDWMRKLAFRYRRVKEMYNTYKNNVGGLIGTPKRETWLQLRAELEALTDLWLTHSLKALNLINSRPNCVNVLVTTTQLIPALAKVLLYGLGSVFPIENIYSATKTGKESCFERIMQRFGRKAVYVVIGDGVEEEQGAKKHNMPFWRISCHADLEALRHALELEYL
Target sequence (Q15475 whole entry, looked up): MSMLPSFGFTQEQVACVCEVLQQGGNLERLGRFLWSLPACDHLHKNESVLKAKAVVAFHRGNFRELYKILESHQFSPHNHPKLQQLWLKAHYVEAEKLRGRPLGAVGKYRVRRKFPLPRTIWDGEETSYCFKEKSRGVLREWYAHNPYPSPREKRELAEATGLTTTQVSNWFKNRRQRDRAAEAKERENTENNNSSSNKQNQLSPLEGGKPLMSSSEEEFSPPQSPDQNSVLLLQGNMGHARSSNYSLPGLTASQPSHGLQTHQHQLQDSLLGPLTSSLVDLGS
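AlphaScreen luminescence read after one hour at 37 °C in darkness. Pin-transferred compounds met GST-Six1 and His-Eya2 protein (5X stock 250 nM/500 nM) plus glutathione donor and Ni-chelate acceptor beads (5X, 50 ug/mL).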
gsp ag – gsp mutant agonism | gsp mutant cells, cAMP HTRF, 30 min; control for the full effect not named in the record | Potency, µM (titrated, usually from 76.9 µM), for inactives: at the highest dose activation (cAMP increase), usual class: activators | 340,000 compounds, 0.13% hits | AID 624287; active = well fitted activation curve with a large enough effect; inconclusive = small, poorly fitted or top-dose-only effect, or another doubt; inactive = no such curve, though single readings can be large or run the other way; cell line not stated here;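 also: phosphodiesterase inhibitor Ro 20-1724 added with compounds to block cAMP breakdown; potency is read from the fitted curve at half-maximal effect; nearly all actives have a fitted effect of over 60% in size; about a fifth of the inactives were tested at one dose only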
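Cells in DMEM/10% FBS with G418 were pretreated with compounds in DMSO plus […] (300 uM stock) for 30 min at 37C. cAMP was measured by HTRF (cAMP-d2 plus anti-cAMP antibody-K) after 30 min at room temperature.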
D2 agonist – human D2 receptor agonism in beta-arrestin assay; P14416; 360,000 compounds, 0.084% hits; DiscoveRx PathHunter D2 beta-arrestin, luminescence, 90 min; 100% = 57 uM dopamine signal; activation, % (test concentration not listed); in the data active = activation above about 40%; inconclusive = about 15% to 40%; inactive = below about 15%; also: compound concentration not given in the record; the text of the record calls up to 30% inactive
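DiscoveRx PathHunter D2 beta-arrestin cells (2,100/well) attached overnight, then compound-stimulated 90 min at 37 C in HBSS/10 mM HEPES/0.1% Tween-20 buffer; beta-galactosidase complementation read by luminescence after 1 h at ambient temperature. Dopamine 57 uM final (EC100) as control.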
D2 PAM – potentiates the human D2 dopamine receptor allosterically. P14416. 360,000 compounds, 0.23% hits. potentiation, % (test concentration not listed). DiscoveRx D2 beta-arrestin cells, luminescence, 90 min; 100% = 57 uM dopamine signal; active = potentiation of 50% or more; inconclusive = 30% to 50%; inactive = 30% or less;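 also: compound concentration not given in the record; tested on top of an EC20 dose of dopamine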
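D2 cells co-treated with compound plus 50 nM dopamine (EC20) for 90 min at 37 deg C to detect potentiation. Beta-arrestin recruitment was read as enzyme-fragment luminescence after 1 h at ambient temperature. Full response was set by 57 uM dopamine.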
* = called active by the depositor; ? = inconclusive; . = not tested or not shown; [ ] = dose if it differs, or a comment.

Value order: CtBP-E1A inh	gsp antag	Six1-Eya2 inh	gsp ag	D2 agonist	D2 PAM
> O=C(CCCCCCCC(=O)c1ccccc1)c1ccccc1
    -4	2%	38	?	-2.0	-4
> Cc1ccc(-c2nc3cc(Cl)ccc3o2)cc1
    7	25%	19	12%	-2.6	-18
> Cc1cc(C(=O)NCc2ccccc2Br)no1
    5	-1%	0	1%	-3.4	7
> O=C(/C=C/c1ccccc1)c1ccc2c(c1)OCO2
    .	7%	4	16%	-1.8	3
> CC1CCCCC12NC(=O)N(CC(=O)NCC(=O)Nc1ccc(F)c(F)c1F)C2=O (stereo not drawn)
    .	15%	8	1%	-2.0	6
> O=C(Nc1ccc2nc(N3CCOCC3)sc2c1)c1ccc(F)cc1
    3	-9%	-2	-14%	0.3	-1
> O=C(Nc1cccnc1Cl)c1ccc(S(=O)(=O)N2CCCCCC2)cc1
    -1	0%	-1	2%	-2.5	-8
> CC(=O)c1sc2nsc(SCCN3CCCC3)c2c1N
    -20	-3%	-22	0%[15.4 µM]	-3.6	-34
> Cc1nonc1NC(=O)CSc1nc2ccccc2o1
    -7	5%	2	-3%	-3.9	-5
> O=C(COC(=O)CCSc1ccc(F)cc1)NCc1ccc(F)cc1
    -7	0%	14	-5%	-13	8
> CCC(=O)c1cn([C@H](CCC(OC)OC)CC(=O)OC(C)(C)C)cc1CC
    -1	3%	-1	.	-0.6	-3
> NC(=O)C1CCN(C2CC(=O)N(c3ccc(F)c(Cl)c3)C2=O)CC1 (stereo not drawn)
    2	12%	6	-2%	-0.5	-1
> O=C(COC(=O)C1CC2C=CC1C2)Nc1cccc(S(=O)(=O)N2CCCCCC2)c1 (stereo not drawn)
    -6	-24%	-7	20%	-0.4	-27
> COCc1[nH]nc2c1C(c1ccc(OC)c(OC)c1)C(C#N)=C(N)O2 (stereo not drawn)
    -2	3%	0	-18%	-1.6	-8
> CC1CN(C(=O)/C(C#N)=C2\N=C(NC(=O)c3ccc(F)cc3)c3ccccc32)CC(C)O1 (stereo not drawn)
    -12	1%	0	-3%	-3.1	-4
> Cc1onc(-c2c(F)cccc2Cl)c1C(=O)NCCc1ccc(S(N)(=O)=O)cc1
    5	-9%	-1	-3%	1.8	-3
> Cc1c(CCC(=O)N[C@@H](CC(C)C)C(=O)O)c(=O)oc2cc3oc4c(c3cc12)CCCC4
    .	-14%	1	11%	3.5	-12
> CCCCCC(=O)N1C[C@@H](n2cc(-c3ccc(F)cc3)nn2)[C@H](O)C[C@@H]1c1ccc(C)cc1
    -13	.	-1	-1%	-11	-8
> COc1c(C)cc(C(=O)C2CCCN(C(=O)CCc3scnc3C)C2)cc1C (stereo not drawn)
    15	-13%	4	24%	2.0	-8
> Cc1cc(OCC(=O)N(C)Cc2ccccc2)cc(C)c1Cl
    7	?	12	14%[15.4 µM]	1.6	-19
> CN1C(=O)NC(c2ccccc2)C2=C1CN(c1cccc(C(F)(F)F)c1)C2=O (stereo not drawn)
    -6	-9%	-1	6%	-1.3	17
> CCCCn1c(N)c(N(CCOC)C(=O)CC(NC(=O)c2ccccc2)c2ccccc2)c(=O)[nH]c1=O (stereo not drawn)
    6	19%	0	-37%[inhibitor]	-3.4	4
> CCc1nc2ccc(C(=O)N3CCN(C(=O)c4ccco4)CC3)cn2c1N(CCC(C)C)CCN(C)C
    -11	.	6	.	-1.5	-9
> O=S(=O)(c1cc(Br)ccc1Br)N1CCCCCC1
    43	-17%	20	13%[15.4 µM]	0.7	-2
> Cc1ccc(SCc2noc(-c3c(C)noc3C)n2)cc1
    33	7%	32	9%[15.4 µM]	-1.3	-5
> Cc1noc(C)c1NC(=O)N(C)C[C@H]1Oc2c(NS(=O)(=O)c3cn(C)cn3)cccc2C(=O)N([C@H](C)CO)C[C@@H]1C
    -4	10%	5	-16%	-5.4	-3
> Cc1ccc(S(=O)(=O)Nc2ccc3ccccc3n2)cc1
    -2	5%	-1	-3%[15.4 µM]	1.8	-3
> C(=N\N1CCN(c2ccccn2)CC1)/c1cccc2ccccc12
    ?	-26%	?	-4%[15.4 µM]	-1.3	-8
> Cc1ccc(-c2ccc(/C=N/NC(=S)Nc3ccccc3)o2)cc1[N+](=O)[O-]
    -14	-11%	-17	0%	0.0	-7
> CC1CC(=O)c2cc(-c3ccccc3)oc2C1 (stereo not drawn)
    -10	.	-17	?	-4.5	-9
> O=C(O)CCCNC(=O)OCc1ccccc1
    4	16%	29	?	-3.1	0
> COc1ccc(/C=C(\C#N)C(=O)NCc2ccccc2)cc1
    7	15%	1	-24%[15.4 µM]	0.9	2
> COc1ccc(CN(C(=O)CCC(=O)Nc2cc(C)on2)C(C(=O)NC(C)(C)C)c2cccc(OC)c2OC)cc1 (stereo not drawn)
    0	-1%	-5	0%	-5.0	-7
> O=C(Nc1nccs1)C1CC(=O)N(c2ccccc2Cl)C1 (stereo not drawn)
    3	-2%	5	-4%	-1.2	7
> CCCCN(C(=O)C1CC(=O)N(CCc2ccc(OC)c(OC)c2)C1)c1c(N)n(CCCC)c(=O)[nH]c1=O (stereo not drawn)
    -20	8%	5	12%[15.4 µM]	-4.0	2
> COc1cc(C(Nc2ccccn2)c2ccc3ccc(C)nc3c2O)cc(OC)c1O (stereo not drawn)
    -6	-5%	?	1%	10	26
> CN(c1ccc(OC(=O)c2ccc(-n3cncn3)c([N+](=O)[O-])c2)cc1)S(=O)(=O)c1ccccc1
    .	-19%	17	0%	9.3	15
> CCOC(=O)c1ccc(NC(=S)N2CCN(CCN=CC3=C(O)CC(c4ccccc4)CC3=O)CC2)cc1 (stereo not drawn)
    .	-13%	5	-13%	-1.3	-2
> COc1ccc(NC(=O)C[C@H]2C(=O)N(c3ccc(Br)cc3)C[C@@H]2CSC)cc1
    -22	.	-14	16%	-9.3	-6
> CC(=O)c1cccc(NS(=O)(=O)N2CCOCC2)c1
    15	4%	8	21%	-4.2	7

Gathered by group, the compounds so far containing a furan ring, fused or not
Value order: CtBP-E1A inh	gsp antag	Six1-Eya2 inh	gsp ag	D2 agonist	D2 PAM
> Cc1c(CCC(=O)N[C@@H](CC(C)C)C(=O)O)c(=O)oc2cc3oc4c(c3cc12)CCCC4
    .	-14%	1	11%	3.5	-12
> CCc1nc2ccc(C(=O)N3CCN(C(=O)c4ccco4)CC3)cn2c1N(CCC(C)C)CCN(C)C
    -11	.	6	.	-1.5	-9
> Cc1ccc(-c2ccc(/C=N/NC(=S)Nc3ccccc3)o2)cc1[N+](=O)[O-]
    -14	-11%	-17	0%	0.0	-7
> CC1CC(=O)c2cc(-c3ccccc3)oc2C1 (stereo not drawn)
    -10	.	-17	?	-4.5	-9

Following part.
Value order: CtBP-E1A inh	gsp antag	Six1-Eya2 inh	gsp ag	D2 agonist	D2 PAM
> CCOC(=O)c1c(NC(=S)NC(=O)c2ccco2)sc2c1CCCC2
    1	-5%	0	-6%	1.7	9
> Cc1ncsc1CCOC(=O)c1ccc(Cl)cc1
    58	-25%	20	-2%	3.5	5
> Cc1c(C)c2ccc(OCC(=O)N(C)C)c(C)c2oc1=O
    -4	6%	-1	-22%	-2.4	-4
> Cc1ccc(OP(=O)(Nc2c(C)n(C)n(-c3ccccc3)c2=O)Oc2ccc(C)cc2)cc1
    .	-16%	6	-17%	-7.2	-4
> CCOC(=O)Cn1c(=O)oc2cc(S(=O)(=O)NC(C)(C)CC)ccc21
    0	14%	-3	9%	-5.9	-7
> COCC(C)n1c(SCc2nc3ccccc3c(=O)[nH]2)nc2ccccc2c1=O (stereo not drawn)
    -13	12%	-8	-1%[15.4 µM]	2.7	3
> S=C(NCc1ccncc1)Nc1ccc(Br)cc1Cl
    5	-14%	-2	-36%[inhibitor]	-2.7	-15
> CCOc1ccc(N=c2scc(-c3ccccc3)n2CCO)cc1
    ?	?	?	?	3.7	-11
> CC1(C)Cc2c(sc3c2c(=O)n(Cc2ccccc2)c2nncn32)CO1
    2	3%	0	-24%	-1.5	-6
> O=C(Nc1ccccc1F)Nc1cccc2ccc(O)cc12
    .	-2%	-13	-25%	11	-26
> CCCOc1cc2c(C#N)c(N3CCCC3)nc(N)c2c(N)n1
    -11	-6%	-2	.	-1.5	-5
> CC(C)c1ccc(/C=N/n2nnnc2Nc2ccccc2)cc1
    6	6%	-1	-1%	-2.4	-5
> Cc1cc(NC(=O)C2CCCCC2)ncc1NC(=O)c1ccccn1
    -3	8%	-3	?	3.7	0
> O=C(c1cc2ccccc2s1)N1CCN(c2ccccn2)CC1
    -2	9%	0	5%	-4.4	-19
> O=C(CSc1nnc(-c2ccncc2)o1)Nc1cc(F)ccc1F
    -4	3%	10	18%	0.1	0
> Cc1cccc(C(=O)NC(=S)NC(C)c2ccccc2)c1 (stereo not drawn)
    -12	-10%	1	-42%[inhibitor]	-4.2	-6
> CN1CCN(c2ncnc3c2ncn3[C@H]2CN(Cc3ccc(-c4ccccc4)cc3)C[C@@H](CO)O2)CC1
    -15	.	-17	.	1.7	-4
> Cc1cc(NC(=O)COC(=O)CCC(=O)c2ccc(F)cc2)no1
    -10	6%	-4	-44%[inhibitor]	-2.1	-36
> COc1cc(CC(=O)OCC(=O)Nc2ccc3c(c2)OCO3)cc(OC)c1OC
    -1	0%	-5	1%	-2.5	-2
> Cc1ccc2c(c1)nnn2C1CCN(CC(=O)NCCc2ccccc2)CC1
    10	-23%	3	-47%[inhibitor]	-0.4	-22
> CCc1c(C2(O)CCCCC2)[nH]c2cc(C(F)(F)F)ccc12
    2	-8%	0	.	-1.7	-6
> CCN(CC(=O)NCc1ccco1)S(=O)(=O)c1ccc(OC)cc1
    -3	3%	3	17%[15.4 µM]	-1.1	-3
> O=S(=O)(c1ccc(Br)cc1)n1ccc2ccccc21
    41	-26%	32	?	-1.6	-18
> COc1ccccc1-c1ccc(=O)n(CC(=O)NCC2CCCO2)n1 (stereo not drawn)
    4	7%	1	-1%	-9.3	-4
> CN1CCN(c2ccc([N+](=O)[O-])c(-n3nc(-c4ccccc4)c4ccccc4c3=O)c2)CC1
    -29	1%	?	16%	-5.5	-17
> Cc1cc(C)c(OCC(=O)Nc2ccc(S(=O)(=O)N3CCCC3)cc2)c(C)c1
    5	5%	31	-5%	2.4	-27
> Cc1cccn2c(=O)c(/C=C(\C#N)C(N)=O)c(N3CCN(c4cccc(Cl)c4)CC3)nc12
    ?	?	?	-1%	-1.3	-5
> CCOC(=O)C1=C(CC)Nc2ccccc2N=C1NC(=O)CCN1C(=O)C2CCCCC2C1=O (stereo not drawn)
    15	-3%	0	-1%[15.4 µM]	1.0	-1
> CC(C)C(NC(=O)C1CCCCC1)C(=O)NCCc1ccccc1 (stereo not drawn)
    .	15%	4	-4%	-3.5	-10
> COc1cccc(OC)c1C(=O)NN1CCCCC1
    9	7%	1	-6%	-2.5	0

Source: PubChem BioAssay

Hits appear at their usual frequency; about 1.4% have a hit in one of these screens.
